High-throughput results from PubChem BioAssay.
CBX7 inh: CBX7 chromodomain binding inhibitors, primary screen, biochemical, AlphaScreen; Chromobox protein homolog 7 (Homo sapiens), O95931; AlphaScreen His6-CBX7 / biotin-H3K27me3 peptide binding; active compounds read low; normalised signal (fraction of DMSO) (no concentration beside the values); hit rate 1.1% among 66,000; AID 1224903, 2016; in the data active means normalised signal below about 0.5;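 further: 100 nL library stock added to about 20 µL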
Target sequence (O95931 whole entry, looked up): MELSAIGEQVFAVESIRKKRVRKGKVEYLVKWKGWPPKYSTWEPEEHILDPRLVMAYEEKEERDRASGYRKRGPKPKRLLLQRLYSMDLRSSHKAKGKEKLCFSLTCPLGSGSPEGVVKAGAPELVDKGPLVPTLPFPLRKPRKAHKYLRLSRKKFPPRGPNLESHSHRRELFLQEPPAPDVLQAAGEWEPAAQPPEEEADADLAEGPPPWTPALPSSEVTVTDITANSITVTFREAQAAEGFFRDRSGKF
CBX7 inh z-score: further read-out of CBX7 inh, marked with its call; z-score; measured here: z-score of CBX7 signal; some inactives read as strong as hits; reference of the scale not given here;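 same signal on another scale; lower means less binding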
An asterisk follows results filed as active; & = joins results of further samples. These rows are one share of the data, so the mix of outcomes need not match the whole.

Value order: CBX7 inh, CBX7 inh z-score
- CCOC(=O)c1oc2ccccc2c1NC(=O)C12CC3CC(CC(C3)C1)C2
  1, 0.56
- O=C(CCn1nc(-c2ccc(Cl)cc2)ccc1=O)NCc1ccc(F)cc1Cl
  1.1, 0.58
- COc1ccc(-c2nc(C(=O)NCc3ccc(C)cc3)c(C)o2)cc1OC
  0.95, -0.61
- O=C(CNc1ccccc1-c1nc2ccccc2[nH]c1=O)NCc1ccccc1
  1, 1.2
- O=C(CSc1nnc(CNC(=O)c2ccccc2F)o1)NC1CCCC1
  1, 1.4
- Cc1ccc(N2C(=O)CC(c3ccsc3)C3=C2CCCC3=O)cc1 (stereo not drawn)
  0.97, -0.29
- Cc1ccc(Nc2nc(C)cc(C)c2C(N)=O)cc1
  0.93&1, -0.98&0.38
- Cc1cc(N2CCC(C)CC2)nc2ccc(NC(=O)CCC(=O)NCCCN3CCCC3)cc12
  0.97, -1.1
- CCN1CCCC1CNC(=O)c1cc2c(s1)CS(=O)(=O)C2 (stereo not drawn)
  1.1, 1.8
- CCN(CCCNC(=O)Cn1ncc2c1-c1cc(C)ccc1OC2)Cc1ccccc1
  1, 1
- CCC(C)NC(=O)c1cnc(N2CCN(c3ccccc3OC)CC2)c2ccccc12 (stereo not drawn)
  1.1, 0.8
- CCOC(=O)c1c(C)n(CCOc2ccc(C)cc2C)c2ccc(O)cc12
  0.61, -1.5
- Cc1oc(-c2cccc(Cl)c2)nc1CN1CCC(C(=O)N2CCN(c3ccccn3)CC2)CC1
  0.99, -0.24
- Cc1nc2ccc(C(=O)NC(C)c3ccccc3)cc2nc1C (stereo not drawn)
  0.9, -1.3
- COc1ccc(Nc2cc(C(=O)NCc3cccs3)c3ccccc3n2)c(OC)c1
  0.77, -3.4
- CCOC(=O)N1CCN(c2c(N3CCN(C(=O)OCC)CC3)c(=O)c2=O)CC1
  1.1, 2.1
- CC1CCCCN1S(=O)(=O)c1ccc2[nH]c(=O)cc(C(=O)NCc3ccccc3Cl)c2c1 (stereo not drawn)
  0.96, -1.2
- O=C(C1CCC1)N1CCc2cc(S(=O)(=O)NCCc3ccc(Cl)cc3)ccc21
  0.94, -1.9
- Cc1ccc(NC(=O)C2CCCN(S(=O)(=O)c3c(C)noc3C)C2)cc1C (stereo not drawn)
  0.89, -0.89
- Cc1c(C(=O)NCCCN2CCOCC2)sc2ncnc(N3CCN(c4ccccc4)CC3)c12
  1.2, 2.1
- CCOC(=O)c1cnc2ccccc2c1Nc1ccc(OC)cc1
  0.72, -3
- CCOc1ccc2nc(NC(=O)Cn3nc(Cc4ccncc4)c4ccccc4c3=O)sc2c1
  1.2, 1.9
- CCOc1ccc2c(c1)c(=O)c(S(=O)(=O)c1ccc(C)cc1)cn2Cc1ccccc1C
  0.85, -5.8
- COc1ccc(-c2cc3nc(C)c(CCC(=O)NC4CCCC4)c(C)n3n2)c(OC)c1
  1.1, 1
- CC(C)(C)c1ccc(OCC(=O)Nc2ccc3oc(-c4ccc(F)cc4)nc3c2)cc1
  1.1, 2.4
- Cc1ccc(C(=O)Nc2cccc(-c3nc4ccc(NC(=O)c5ccc(C)cc5)cc4o3)c2)cc1
  1.1, 0.054
- CCC(C)NC(=O)Cn1cnc2scc(-c3ccc(C)cc3)c2c1=O (stereo not drawn)
  0.94, -0.062
- COc1cccc(Nc2c3c(nc4ccc(Cl)cc24)CCC3)c1
  1.1, 0.099
- CCOC(=O)c1c(C)n(CCOc2ccc3ccccc3c2)c2ccc(O)cc12
  0.72, -1.1
- CCOc1ccccc1N(CC(=O)Nc1ccc(S(=O)(=O)N2CCOCC2)cc1)S(=O)(=O)c1ccccc1
  0.98, -0.21

Grouped by structure: those above containing an NH in an aromatic ring.
Value order: CBX7 inh, CBX7 inh z-score
- O=C(CNc1ccccc1-c1nc2ccccc2[nH]c1=O)NCc1ccccc1
  1, 1.2
- CC1CCCCN1S(=O)(=O)c1ccc2[nH]c(=O)cc(C(=O)NCc3ccccc3Cl)c2c1 (stereo not drawn)
  0.96, -1.2

A different layout for some results above:
SMILES	CBX7 inh	CBX7 inh z-score
COc1cccc(Nc2c3c(nc4ccc(Cl)cc24)CCC3)c1	1.1	0.099
COc1ccc(-c2nc(C(=O)NCc3ccc(C)cc3)c(C)o2)cc1OC	0.95	-0.61

(continued)
Value order: CBX7 inh, CBX7 inh z-score
- O=S(=O)(Nc1nc2ccccc2nc1N1CCc2ccccc2C1)c1ccccc1
  0.85, -4.4
- CNc1oc(-c2ccccc2)nc1C#N
  0.87, -1.7
- COc1ccc2c(c1)CCc1c(C(=O)Nc3c(C)nn(Cc4ccc(C)cc4)c3C)noc1-2
  0.93, -1.7
- CCOC(=O)N1CCN(c2c(NCCc3ccc(Cl)cc3)c(=O)c2=O)CC1
  0.99, -0.29
- Fc1cccc(F)c1-c1noc(/C=C/c2ccccc2Cl)n1
  1.3, 5.6
- Cc1nc2c(C(=O)NCCc3ccccc3)cnn2c(C)c1Cc1ccccc1
  1.1, 1.4
- COc1ccc(CCNC(=O)Cn2nc(-c3ccc(Cl)cc3)ccc2=O)cc1OC
  0.99, -0.37
- Cc1cc(=O)n2nc(N3CCCC(C(=O)NCC4CCCO4)C3)sc2n1 (stereo not drawn)
  1.2, 1.6
- O=C(CN1C(=O)CSc2ncccc21)NCCc1ccccc1
  1.2, 3
- CCOC(=O)N1CCN(C(=O)C2CCN(c3nc4ccc(OCC)cc4s3)CC2)CC1
  1, 0.0002
- O=C(CN1C(=O)c2ccccc2S1(=O)=O)Nc1sc2c(c1C(=O)O)CCCC2
  1.1, 0.23
- Cc1nn(C(=O)c2sc3ccccc3c2Cl)c2c1[C@H]1[C@@H](C2)C1(C)C
  1.1, 0.4
- CCOc1ccc(-c2nc(C#N)c(NCC3CCCO3)o2)cc1 (stereo not drawn)
  1, 0.18
- COC(CN(C)c1cc(C)nc2c(-c3ccc(Cl)cc3)c(C)nn12)OC
  1.7, 5.5
- O=C1CN(C(=O)c2ccccc2F)C(c2ccccc2)c2cc(Br)ccc2N1 (stereo not drawn)
  0.86, -1.3
- Fc1ccc(Nc2c3c(nc4ccc(Cl)cc24)CCC3)cc1Cl
  1.1, 0.1
- COc1cccc(C(=O)Nc2c(C(=O)Nc3ccc(F)cc3)oc3ccccc23)c1
  1.1, 1.2
- CCOC(=O)C1CCN(c2c(NCc3ccc(C(=O)Nc4ccc(C)cc4)cc3)c(=O)c2=O)CC1
  0.93, -2.2
- O=C(COc1ccc(Cl)cc1Cl)Nc1cccc(-c2nc3ncccc3o2)c1
  1, -0.023
- CCOc1ccc(NC(=O)c2cccc3c2C(=O)N(C2CCCCC2)C3)cc1
  0.98, -0.025
- COc1ccccc1NC(=O)Cn1cnc2sc(C(=O)Nc3cnc4ccccc4c3)c(C)c2c1=O
  1, 0.14
- O=C(CSc1nccn1-c1ccc(F)cc1)Nc1ccccc1C(F)(F)F
  0.89, -0.85
- CCC1=Nc2cc(C(=O)NCc3ccccc3Cl)ccc2Sc2ccc(Cl)cc21
  1.1, 2.5
- O=C(CN1CCN(Cc2ccccc2F)C1=O)NCc1ccccc1Cl
  1, -0.056
- Cc1ccc(-c2noc(CCC(=O)NCC3CCCO3)n2)cc1 (stereo not drawn)
  1, -0.00058
- COc1ccccc1-c1nc(S(=O)(=O)c2ccccc2)c(N2CCCCC2)o1
  0.89, -4.5
- O=S(=O)(c1cnc[nH]1)N1CCN(Cc2ccccc2)CC1
  0.92, -1.4
- COc1ccc(NC(=O)c2cnc(N3CCN(c4ncccn4)CC3)c3ccccc23)c(OC)c1
  1, -0.028
- CCOc1ccc(CCNC(=O)CCc2c(C)nc3cc(-c4ccccc4)nn3c2C)cc1
  0.99, -0.14
- Cc1cccc(OCC(=O)N(Cc2ccc(N(C)C)cc2)C2CCS(=O)(=O)C2)c1C (stereo not drawn)
  0.96, -0.4
- CC(C)Cn1cc(C(=O)NCCCN2CCOCC2)c2c3ccccc3n(C)c2c1=O
  1.1, 0.95
- COc1cccc(C2=NOC(C(=O)Nc3ccc4c(c3)OCO4)C2)c1 (stereo not drawn)
  0.87, -1.7
- COc1ccc2c(c1)c(/C=C/c1nc3ccccc3c(=O)n1-c1cccc(C)c1)c(C)n2C
  1.1, 0.63
- COc1ccc(-c2noc(CCC(=O)NCc3cccc(OC)c3)n2)cc1
  0.87, -2
- O=C(Nc1sc2c(c1-c1nc3ccccc3s1)CCCC2)c1ccc(S(=O)(=O)N2CCCCC2)cc1
  1, 1.5
- Cc1cccc(C)c1NC(=O)C(=O)NCCc1c[nH]c2ccccc12
  1, 0.19
- COc1ccccc1C(=O)Nc1ccc2oc(-c3ccc(F)cc3Cl)nc2c1
  0.98, -0.17
- COc1cc2c(cc1OC)C(c1ccc(C(=O)O)cc1)NCC2 (stereo not drawn)
  0.99, -0.014
- CCC1CCCCN1S(=O)(=O)c1ccc(C(=O)Nc2nnc(-c3ccc(OC)cc3)o2)cc1 (stereo not drawn)
  0.79, -4.8
- COc1cccc(-c2nn(C)c3sc(C(=O)Nc4ccc(OC)c(Cl)c4)cc23)c1
  1.2, 2

Profiles, looked up by structure. Order of values: CBX7 inh | CBX7 inh z-score
COc1cccc(C2=NOC(C(=O)Nc3ccc4c(c3)OCO4)C2)c1 (stereo not drawn) in the list: 0.87 | -1.7
COc1ccc2c(c1)c(/C=C/c1nc3ccccc3c(=O)n1-c1cccc(C)c1)c(C)n2C in the list: 1.1 | 0.63
O=C(Nc1sc2c(c1-c1nc3ccccc3s1)CCCC2)c1ccc(S(=O)(=O)N2CCCCC2)cc1 in the list: 1 | 1.5

Continuation:
COC(=O)c1cc2c(cc1NC(=O)Cn1nc(Cc3ccncc3)c3ccccc3c1=O)OCO2
  CBX7 inh = 1 | CBX7 inh z-score = 0.23
CCOC(=O)c1c(NC(=O)c2c(-c3ccccc3Cl)noc2C)sc2c1CCCC2
  CBX7 inh = 1.1 | CBX7 inh z-score = 2.1
Cc1ccc(Cn2c(C(=O)NC3CCC(C)CC3)cc3sccc32)cc1 (stereo not drawn)
  CBX7 inh = 1 | CBX7 inh z-score = -0.1
COc1ccccc1C(CC(=O)NC1CCOC(C)(C)C1)c1ccc(OC(C)C)cc1 (stereo not drawn)
  CBX7 inh = 1 | CBX7 inh z-score = 1.7
CCCN1Cc2cccc(C(=O)Nc3ccc(OC)c(OC)c3)c2C1=O
  CBX7 inh = 1.1 | CBX7 inh z-score = 0.076
Cc1ccc(C)c(Nc2nc(-c3ccccc3)cs2)c1
  CBX7 inh = 0.87 | CBX7 inh z-score = -1.1
CCCn1c(C(C)NC(=O)c2ccc(OC)c(OC)c2)nc2ccccc21 (stereo not drawn)
  CBX7 inh = 0.8 | CBX7 inh z-score = -2.3
CCNC(=O)CC1C(=O)N(c2ccc(F)cc2)C(=O)N1Cc1ccc(F)cc1 (stereo not drawn)
  CBX7 inh = 1.1 | CBX7 inh z-score = 2.9
Cc1ccc(-c2nc(-c3ccccc3)c(S(=O)(=O)CC(=O)Nc3ccc4c(c3)OCCO4)[nH]2)cc1
  CBX7 inh = 0.78 | CBX7 inh z-score = -7.9
CCCCCn1c(CNC(=O)c2cccc(C)c2)nc2ccccc21
  CBX7 inh = 1.1 | CBX7 inh z-score = 1.1
CC(C)(C)c1nc(CN2CCOCC2)ccc1O
  CBX7 inh = 0.97 | CBX7 inh z-score = -0.58
CCCCOc1ccc(C(=O)Nc2nnc(-c3ccccc3OC)s2)cc1
  CBX7 inh = 1.2 | CBX7 inh z-score = 0.72
CCOC(=O)C1CCN(Cc2cn3c(-c4ccc(Br)cc4)nnc3s2)CC1
  CBX7 inh = 1.2 | CBX7 inh z-score = 2.5
Cc1ccc(-c2cc(C(=O)NCCc3cccc(Cl)c3)c3ccccc3n2)cc1
  CBX7 inh = 1 | CBX7 inh z-score = 0.043
Fc1ccc(C2CC(c3ccccc3OC(F)F)n3ncnc3N2)cc1 (stereo not drawn)
  CBX7 inh = 0.95 | CBX7 inh z-score = -1.6
COc1ccc(C2=NN(CCC(=O)NC3CCCC3)C(=O)CC2)cc1
  CBX7 inh = 1 | CBX7 inh z-score = -0.026
Cc1ccc(NC(=O)C2CCN(c3ccc(N4CCOCC4)nn3)CC2)cc1C
  CBX7 inh = 1 | CBX7 inh z-score = 0.03
CC(CCc1ccccc1)NC(=O)c1ccc2c(c1)N(Cc1ccccc1)CCS2 (stereo not drawn)
  CBX7 inh = 0.96 | CBX7 inh z-score = -0.058
CC(NC(=O)c1ccc2c(c1)NC(=O)CN2C)c1ccccc1 (stereo not drawn)
  CBX7 inh = 1 | CBX7 inh z-score = 0.022
COc1ccc(-n2nnc3c(=O)n(Cc4ccccc4C)cnc32)cc1
  CBX7 inh = 0.95 | CBX7 inh z-score = -0.99
Cc1ccc(NC(=O)Cn2c(SCc3cccc(F)c3)nc3ccncc32)c(C)c1
  CBX7 inh = 0.96 | CBX7 inh z-score = -1.1
Cc1cc(C)cc(C(=O)Nc2c(C(=O)Nc3cccc(F)c3)oc3ccccc23)c1
  CBX7 inh = 1.1 | CBX7 inh z-score = 1.3
O=C(C1CCN(S(=O)(=O)c2cccnc2)CC1)N1CCN(c2cccc(C(F)(F)F)c2)CC1
  CBX7 inh = 0.96 | CBX7 inh z-score = -1.1
COc1ccc(N(CC(=O)Nc2cccc(C)c2C)S(=O)(=O)c2c(C)nn(C)c2C)cc1
  CBX7 inh = 1.1 | CBX7 inh z-score = 0.94
COc1ccc(-c2nc3ccccc3o2)cc1NC(=O)c1ccc(C(C)(C)C)cc1
  CBX7 inh = 1 | CBX7 inh z-score = 0.47

O=C(Nc1ccc(-c2noc(-c3ccc(F)cc3)n2)cc1)c1ccncc1
  CBX7 inh = 0.98 | CBX7 inh z-score = -0.31
CC1CCCC(C)N1c1nnc(NC(=O)Nc2ccc(F)cc2)s1 (stereo not drawn)
  CBX7 inh = 1 | CBX7 inh z-score = 0.051
CCOC(=O)c1cnc2c(C)c(Cl)ccc2c1Nc1ccc(C)cc1
  CBX7 inh = 1.3 | CBX7 inh z-score = 1.8
CCOc1ccc(NC(=O)c2ccc3c(c2)N(Cc2ccc(F)cc2)C(=O)CS3)cc1
  CBX7 inh = 1.1 | CBX7 inh z-score = 0.93
COc1ccc(C(=O)Nc2nc3c(s2)C(=O)CC(C)(C)C3)cc1OC
  CBX7 inh = 1 | CBX7 inh z-score = 0.52
